# Screening data deposited in PubChem BioAssay by National Center for Advancing Translational Sciences (NCATS).
# A488 fluor: qHTS Assay for Spectroscopic Profiling in A488 Spectral Region. compound autofluorescence, A488 spectral region, dye equivalency; hits give high values. max dye equivalency, M. 0.1% of 59,000 active; active = above 10 nM dye equivalent; inconclusive = 1 to 10 nM; inactive = 1 nM or less; about half of its hits are not listed in these tables;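 further: highest value over a series up to 38 µM; compound alone in buffer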
#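 Spectroscopic profiling in the A488 region: compounds in pH 8.0 Tris (100 mM), 15 min RT, CCD imaging with 480 nm excitation and 540 nm emission; responses normalized against A488 dye standards.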
# Resorufin fluor: qHTS Assay for Spectroscopic Profiling in Resorufin Spectral Region. max dye-equivalent concentration, M. 0.04% of 59,000 active. Compound fluorescence, resorufin region 547/598 nm, buffer; hits give high values; active = above 10 nM dye equivalent; inconclusive = 1 to 10 nM; inactive = 1 nM or less; a few of its hits are not listed in these tables; further: highest value over a series up to 38 µM
#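 Compounds in 100 mM Tris buffer, pH 8.0, incubated 15 min at room temperature, then read with 547 nm excitation and 598 nm emission filters. Fluorescence was converted to dye-equivalent concentration using an on-plate six-point resorufin standard curve.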
# A647 autofl: qHTS Assay for Spectroscopic Profiling in A647 Spectral Region | Compound fluorescence, A647 channel (570/671 nm), Tris buffer | max dye-equivalent concentration, M | 59,000 tested, under 10 active; active means above 1 µM dye equivalent; inconclusive means 0.1 to 1 µM; inactive means 0.1 µM or less;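 further: values scaled relative to a standard on each plate; highest value over a series up to 38 µM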
#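 Compounds pinned into 100 mM Tris pH 8.0, 15 min at room temperature, then read with 570 nm excitation/671 nm emission filters. Fluorescence normalized to an on-plate six-point Alexa 647 standard curve, giving dye-equivalent concentration per compound concentration.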
# AID923: qHTS Assay for Allosteric/Competitive Inhibitors of Caspase-1: Spectroscopic Profiling in AFC Spectral Region | Potency, µM (doses to about 57.5 µM), for inactives: at the top dose fluorescence increase, actives largely listed as activators | 1.1% of 75,000 active | compound fluorescence, AFC spectral region (405/520 nm); almost no hit is shown here; active means well fitted activation curve with a large enough effect; inconclusive means small, poorly fitted or top-dose-only effect;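 further: potency means the concentration at half of the fitted maximal effect; 0% is about no effect; scaled to a free AFC standard on each plate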
#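 Titrations up to 57 uM read every 20 sec for 3 min (405/520 nm) with 50 nM caspase 1 and 5 uM Ac-WEHD-AFC, pH 7.5 HEPES buffer. Fluorescence-vs-time intercept gave baseline, scaled against on-plate AFC standard.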
# TSHR agonist: qHTS Assay for Agonists of the Thyroid Stimulating Hormone Receptor; Potency, µM (titrated, usually from 57.1 µM), inactives show at the top dose activation, most hits filed as activators; Thyrotropin receptor (Homo sapiens), P16473; HEK293-CNG-TSHR cells (CNG channel as cAMP sensor), membrane potential dye, cAMP; AID 926, 2007; 0.48% of 73,000 active; active = well fitted activation curve of enough size with the parental cells flat; inconclusive = any curve in the parental cells; inactive = parental cells flat and receptor cells flat or falling; further: potency means the concentration at half of the fitted maximal effect; % of control where 0% means no effect; weak receptor curves with flat parental cells got no call and are not listed
# Target sequence (P16473 whole entry, looked up): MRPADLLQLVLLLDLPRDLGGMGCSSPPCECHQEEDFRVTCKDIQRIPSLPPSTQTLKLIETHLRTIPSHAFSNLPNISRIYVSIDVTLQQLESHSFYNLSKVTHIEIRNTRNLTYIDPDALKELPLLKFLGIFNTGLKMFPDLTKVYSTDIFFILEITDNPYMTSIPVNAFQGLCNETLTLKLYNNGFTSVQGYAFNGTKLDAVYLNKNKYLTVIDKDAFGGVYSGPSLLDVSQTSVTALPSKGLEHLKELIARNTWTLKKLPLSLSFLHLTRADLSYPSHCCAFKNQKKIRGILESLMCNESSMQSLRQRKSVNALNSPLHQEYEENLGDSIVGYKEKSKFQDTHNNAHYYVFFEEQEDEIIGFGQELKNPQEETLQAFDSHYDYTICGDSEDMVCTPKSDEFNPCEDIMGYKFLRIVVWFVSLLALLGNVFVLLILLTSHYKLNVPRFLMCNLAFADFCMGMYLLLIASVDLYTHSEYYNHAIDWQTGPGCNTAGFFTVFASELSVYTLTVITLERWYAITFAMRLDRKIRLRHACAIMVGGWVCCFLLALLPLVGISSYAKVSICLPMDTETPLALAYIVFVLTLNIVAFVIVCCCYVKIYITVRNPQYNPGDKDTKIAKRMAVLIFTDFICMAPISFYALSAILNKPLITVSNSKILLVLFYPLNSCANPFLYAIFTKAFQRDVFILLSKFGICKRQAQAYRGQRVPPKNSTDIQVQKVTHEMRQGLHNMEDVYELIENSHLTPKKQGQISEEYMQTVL
#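 HEK 293 cells stably expressing TSHR and a cAMP-gated CNG channel; parental CNG-only cells as counterscreen. Cells preloaded 60 min with membrane potential dye plus 100 uM RO 20-1724, then compound 30 min; fluorescence read at 590 nm.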
# Starred values were filed as active, the others as inactive; i = inactive; ? = inconclusive; . = no result given; & = joins results of further samples; [ ] = another dose, or the depositor's remark.
SMILES,A488 fluor,Resorufin fluor,A647 autofl,AID923,TSHR agonist
C=CCNc1nc(N)c(C(=O)Nc2cc(C)on2)s1,i,i,1e-09,0.4%,-6%
COc1ccccc1-c1cc(C(=O)Nc2cc(C)n(Cc3ccc(Cl)cc3)n2)no1,i,i,1e-09,-0.4%,?
CNC(=O)/C(=N\O)c1ccccc1,i,i,1e-09,-0.1%,-4%
Cc1cc(C(N)=O)c2cc(Br)ccc2n1,.,.,.,0.2%,-5%
O=C(NCc1ccco1)C1CCN(S(=O)(=O)N2CCC3(CC2)OCCO3)CC1,i,i,1e-09,0.4%,3%
COC(=O)NC(c1ccco1)[C@]1(C(C)=O)CCCC1=O (some centres undefined),.,.,.,2.0%[11.5 µM],5%[11.4 µM]
OC[C@@H]1NC[C@@H](O)[C@H]1O,i,i,1.1e-09,-2.7%,11%
CCOC(=O)CCc1nc2ccccc2[nH]1,i,i,4.8e-08,0.7%,-2%
CCOC(=O)N1CCC(NCCNC(=O)c2ccc(Cl)cc2)CC1,i,i,2.5e-08,1.3%,15%
C/C(=N\O)c1ccc2[nH]ccc2c1,i,i,1e-09,.,.
Cc1noc(C)c1COC(=O)Cc1ccc(Cl)c(Cl)c1,i,i,2.8e-08,0.6%,23%
C=CCNS(=O)(=O)c1ccc(OC)c(C)c1,i,i,4e-08,-0.1%,.
O=C1C2C(C(=O)N1Cc1ccco1)C1C=CC2C12CC2 (centres undefined),i,i,3.6e-08,0.8%,-2%
Cc1cccc(NCc2ccccc2O)c1C,i,i,3.2e-08,-1.1%,-3%
CC1CCCN(CC(O)COc2ccc(Cl)cc2)C1 (centres undefined),i,i,1e-09,0.0%,8%
COC(=O)NC(CC(C)=O)c1ccc2c(c1)OCO2 (centres undefined),.,.,.,1.5%[11.5 µM],3%[11.4 µM]
Cc1ccc(Cn2c(SCc3cccnc3)nc3c2c(=O)n(C)c(=O)n3C)cc1,i,i,2.2e-08,0.7%,26%
Cc1ccc(S(=O)(=O)O)c(C)c1N1CCCC1=O,i,i,8.3e-08,-1.3%,-2%
CCc1ccccc1N1CSC2=C(C#N)C(c3ccccc3F)CC(=O)N2C1 (centres undefined),.,.,.,8.0%,2%
OC[C@H]1O[C@@H](n2cnc3c(NC4CCCC4)ncnc32)[C@H](O)[C@@H]1O,i,i,1.3e-08,.,.
Cc1cc(NCCN(C)C)n2nc(-c3cccs3)cc2n1,i,i,2.9e-08,1.8%,5%
NC(=O)c1ccccc1N/C=C/C(=O)c1ccco1,i,i,3.4e-08,15%,10%
COC(=O)c1c(NC(=O)c2nc3ccccc3s2)sc2c1CCN(C(C)=O)C2,.,.,.,21%,-1%
COc1ccc(NCCNc2ccc(OC)cc2)cc1,.,.,.,0.7%,8%
CCn1c(SCC(=O)Nc2nc(C)cs2)nnc1-c1ccco1,i,i,7.1e-08,-1.1%,?

# Other structures:
SMILES,A488 fluor,Resorufin fluor,A647 autofl,AID923,TSHR agonist
O=C(c1ccccc1)c1ccncc1,i,i,8.6e-09,-1.1%,7%
Cc1ccc(N(O)C(=O)OCCNC(=O)Nc2ccccc2)cc1,i,i,9e-09,-0.9%,-3%
O=C(c1ccco1)N1CCN(c2ccc(Cl)cc2)CC1,i,i,1e-09,-0.9%,-1%
CCCCCCc1nnc(NC(=O)OCC)s1,.,.,.,-0.6%,19%
Cc1c(Cl)cccc1NC(=O)CCN1CCCC(C)C1 (centres undefined),i,i,3.5e-08,1.0%,4%
O=c1[nH]c2ccc(S(=O)(=O)N3CCN(c4ccccc4F)CC3)cc2s1,i,i,8.6e-09,0.7%,?
Cn1cccc1C(=O)NC(=O)COC(=O)Cc1coc2ccc3ccccc3c12,i,i,4.3e-08,6.9%,16%
CCOc1cccc(N2C(=O)CC(NCc3ccc(S(N)(=O)=O)cc3)C2=O)c1 (centres undefined),.,.,.,2.2%,2%
CCOc1ccc(N2Cc3ncccc3C2=O)cc1,i,i,4.7e-09,0.5%,-5%
O=C(CSc1ccc2nnc(-c3ccccn3)n2n1)N1CCN(c2ccccc2)CC1,.,.,.,-0.3%,-6%
CC(C)(C)Nc1c(N)c(=O)oc2ccccc12,.,.,.,-1.3%,8%[11.4 µM]
Cc1ccc(C(=O)Nc2ncc(Cc3ccc(F)cc3)s2)o1,i,i,2.6e-08,1.8%,-2%
CN(Cc1ccco1)c1nc(-c2cccnc2)nc2ccccc12,i,i,1.6e-08,3.2%,?
Cc1n[nH]c(C)c1S(=O)(=O)N1CCN(c2ccccn2)CC1,i,i,3.2e-09,-1.2%,5%
COc1ccc2[nH]cc(CCNC(C)=O)c2c1,i,i,1e-09&3.1e-08&3.1e-08,-0.3%,1%
OC/C(Br)=C(\Br)CO,.,.,.,-2.6%,?
C[C@H]1CC[C@H]2C(=O)N[C@H](Cc3ccccc3)C(=O)N2[C@@H]1c1ccccc1,.,.,.,9.2%[11.5 µM],-3%[11.4 µM]
CCNc1c(N)c(=O)oc2ccccc12,i,i,1e-09,-0.4%,3%
O=C1c2ccccc2C(=O)N1Cc1ccc2c(c1)OCO2,i,i,1.9e-08,-1.2%,?
CC1(C)Cc2c(c(-c3ccccc3)[nH]c(=O)c2C#N)CO1,i,i,1e-09,0.2%,1%
Cc1cc(C)n(-c2nc(C)nc3sc4c(c23)CCC(C)C4)n1 (centres undefined),i,i,1e-09,-2.8%,-11%[11.4 µM]
O=C(O)c1cccc(N2C(=O)CCC2=O)c1,i,i,2.8e-08,-0.5%,6%
Nc1ccn([C@@H]2O[C@H](COC(=O)C34CC5CC(CC(C5)C3)C4)[C@@H](O)[C@@H]2O)c(=O)n1,i,i,2.2e-08,1.5%[11.5 µM],-1%[11.4 µM]
Cc1cc(C)nc(CC(N)=O)n1,i,i,4.5e-08,.,.
COc1cc2c(C#N)c(N3CCCCC3)nc(N)c2c(N)n1,i,i,1.2e-08,12%,-21%

# Limited to A647 autofl, A488 fluor and TSHR agonist, for some of the entries so far:
SMILES | A647 autofl | A488 fluor | TSHR agonist
C[C@H]1CC[C@H]2C(=O)N[C@H](Cc3ccccc3)C(=O)N2[C@@H]1c1ccccc1 | . | . | -3%[11.4 µM]
CCOc1ccc(N2Cc3ncccc3C2=O)cc1 | 4.7e-09 | i | -5%

# (continued)
SMILES,A488 fluor,Resorufin fluor,A647 autofl,AID923,TSHR agonist
Cn1cc(S(=O)(=O)N2CCN(C(=O)c3ccco3)CC2)c(=O)n(C)c1=O,.,.,.,-3.1%,-12%
O=C(Nc1ccc(F)cc1)N1CCOCC1,i,i,7e-09,0.4%,5%
Cc1occc1-c1nnc(SCC(=O)N2CCCc3ccccc32)n1Cc1ccco1,i,i,5.2e-08,-1.0%,?
COc1ccccc1N1CCN(C(=O)c2ccccc2Oc2ccccc2)CC1,i,i,1.5e-08,-7.2%,.
Cc1noc(C)c1COC(=O)CCCc1c[nH]c2ccccc12,i,i,5e-09,1.3%,?
Cc1cc(C)nc(N2CCC(C(=O)NCCc3ccccc3)CC2)n1,i,i,8.7e-09,-1.4%,7%
Cc1cc(C)c2nc(SCC#N)cc(C)c2c1,i,i,3.3e-08,1.1%,?
Cc1ccc(C)c2[nH]c(=O)c(CCNC(=O)CC(C)(C)C)cc12,.,.,.,-2.0%,-9%
CC(C)c1ccc(NS(=O)(=O)c2ccc3[nH]cc(C(=O)N4CCC(C(N)=O)CC4)c(=O)c3c2)cc1,i,i,2.6e-08,0.3%,0%
COc1ccc2[nH]c(=O)c(CN(C)C(=O)C3CCCCC3)cc2c1,i,i,1.2e-08,-0.2%,-4%
CN(Cc1ccccc1)S(=O)(=O)c1ccc(S(=O)(=O)N2CCN(CCC#N)CC2)cc1,.,.,.,-0.1%,-11%
O=C(Oc1nsnc1N1CCOCC1)N1CCOCC1,i,i,2.6e-08,0.1%,7%
Cc1ccsc1CN1CCN(c2ccccn2)CC1,.,.,.,0.5%,7%[11.4 µM]
Cc1ccc(N(C(=O)c2ccc(S(=O)(=O)N3CCOCC3)cc2)C2C=CS(=O)(=O)C2)cc1 (centres undefined),i,i,2.2e-08,-0.5%,2%[11.4 µM]
C=CCn1c(SCn2nnc3ccccc3c2=O)nnc1C1CCCCC1,i,i,3.4e-09,-0.2%,10%[11.4 µM]
Cn1nc(-c2ccccc2F)c2cc(C(=O)N3CCN(C(=O)c4ccco4)CC3)sc21,i,i,3.6e-08,0.1%,1%
COC(=O)c1ccc2c(=O)n3c(nc2c1)SCC(c1ccccc1)=N3,.,.,.,-2.7%,6%
CCCNC(=O)OC[C@@H]1O[C@H](CCO/N=C(\C)CCN2CCc3nc(CC)c(CC)cc3C2)C=C[C@@H]1Oc1ccc(OC)cc1,.,.,.,-3.2%[11.5 µM],0%[11.4 µM]
CC1(C)NC(=O)N(CCCCOc2ccc3c(c2)CCC3)C1=O,i,i,2.7e-08,1.9%,3%
Cc1occc1-c1nnc(SCC(=O)NCc2ccco2)n1CC(C)C,i,i,1.1e-08,1.8%,20µM*
CC(=O)Nc1cc2c(cc1C(=O)c1ccc(C)cc1)OCCO2,i,i,1e-09,1.5%,4%
O=C(O)COc1cccc2nsnc12,i,i,3.1e-08,19%,-3%
COc1ccc(-n2nnnc2SCC(=O)N2C(C)CCCC2C)c(OC)c1 (centres undefined),i,i,1e-09,0.6%,.
O=C(NC1CCCCC1)C(c1ccco1)N(Cc1ccco1)C(=O)c1ccco1 (centres undefined),i,i,2.6e-08,-0.3%,?
N#CCCNCC1(c2ccccc2)CCCC1,i,i,8.1e-09,-0.6%,?

# Record cards, from the list above.
# C=CCNc1nc(N)c(C(=O)Nc2cc(C)on2)s1 is listed as A488 fluor: i; Resorufin fluor: i; A647 autofl: 1e-09; AID923: 0.4%; TSHR agonist: -6%
# Cc1cc(C)nc(CC(N)=O)n1 is listed as A488 fluor: i; Resorufin fluor: i; A647 autofl: 4.5e-08; AID923: .; TSHR agonist: .
# Cc1noc(C)c1COC(=O)CCCc1c[nH]c2ccccc12 is listed as A488 fluor: i; Resorufin fluor: i; A647 autofl: 5e-09; AID923: 1.3%; TSHR agonist: ?

# The list continues.
SMILES,A488 fluor,Resorufin fluor,A647 autofl,AID923,TSHR agonist
Cc1ccc(C2/C(=C(\O)c3c(C)nc4ccccn34)C(=O)C(=O)N2CCCN(C)C)o1 (centres undefined),i,i,8e-09,0.7%,-21%
CC1(C)CC(=O)C2=C(C1)OC(N)=C(C#N)C2C1C=CCCC1 (centres undefined),i,i,8.6e-09,.,.
O=C(NCc1ccco1)c1cccc2c1C(=O)N(C1CCCCC1)C2,i,i,3.6e-08,0.6%,30%
C#C[C@]1(O)CC[C@@H]2[C@H]3CCC4=Cc5oncc5C[C@]4(C)[C@@H]3CC[C@@]21C,i,i,1e-09,-1.6%[25.7 µM],.
CC1=C(C(=O)Nc2ccccn2)C(c2cccnc2)n2nnnc2N1 (centres undefined),i,i,1e-09,0.1%,0%[11.4 µM]
CC1=C/C(=C(/c2ccc(O)c(C)c2)c2ccccc2C(=O)O)C=CC1=O,i,i,1e-09,-3.4%[11.5 µM],-2%[11.4 µM]
Cc1cc(C)c2c(n1)nn1c(N3CCN(c4cccc(Cl)c4)CC3)cc(C)nc21,i,i,3e-08,-1.8%,18%
O=c1cc(-c2ccc(Cl)c(Cl)c2)[nH][nH]1,i,i,4.5e-08,-4.0%,-11%
CCC1CC2(C)NC(=O)c3c(sc4c3CC(C)(C)OC4)N2C1=O (centres undefined),i,i,2.8e-09,.,.
COc1ccc(CN2C(=O)c3cccnc3C2Nc2cc(Cl)c(OC)cc2OC)cc1 (centres undefined),i,i,8.8e-09,-0.8%,-9%
C[C@@H]1/C=C\CC(=O)OC[C@H](C)C(=O)N2CCC[C@@H]2C(=O)OC1,.,.,.,0.3%[11.5 µM],7%[11.4 µM]

# Some of the compounds tested. The share of hits here may be higher or lower than overall.
